AID504770: growth inhibitors of E. coli YBA685 in a screen for V. cholerae RctB (chromosome II replication) inhibitors. E. coli YBA685 rctB-dependent plasmid, OD600 growth, 3 h; hits give low values. z-score (concentration not given with the values). 130,000 tested, 0.27% active;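 active means z-score under -2 on both plates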;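 further: wells of about 30 µL received 100 nL stock; score is relative to mean and SD of the test wells; the first replicate is given; strong numbers were not always called active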
Ba CapD inh: inhibitors of Bacillus anthracis CapD enzyme. AID 492967. purified CapD enzyme, fluorescence intensity read-out; hits give low values; some hits fall short of the stated cut. z-score (concentration not given with the values). 140,000 tested, 0.23% active;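 active means z-score under -4 in either of two replicates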;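 further: stock transfer was 100 nL into about 40 µL; score is relative to mean and spread of the plate; one replicate is shown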
An asterisk follows results filed as active; / = not tested or not shown; & = joins results of further samples.

SMILES	AID504770	Ba CapD inh
Cc1noc(C)c1S(N)(=O)=O	-1.4	/
CCCCC1CN2CCc3c([nH]c4ccccc34)C2(C)C1 (stereo not drawn)	-0.65	0.58
O=C1CCSC(=O)N1CN1CCN(S(=O)(=O)c2ccc(Cl)cc2)CC1	-0.05	/
COc1ccc(OCC(=O)N(c2ccccc2)C(C)C)cc1	0.85	0.18
COc1ccc(CNCCNC(=O)c2cccs2)c(OC)c1OC	0.75	/
COc1ccc(CNC(=O)c2cnn3c(C)c(Cc4cccc(Br)c4)c(C)nc23)cc1	/	14
N#CC1(NC(=O)CSc2nnc(-c3ccc4c(c3)OCO4)o2)CCCCC1	0.3	/
CCCn1c2c(c(=O)n(C)c1=O)C(c1ccc(Br)cc1)C1=C(COC1=O)N2 (stereo not drawn)	1.4	/
COc1ccc(CCNC(=O)CC2Sc3ccccc3NC2=O)cc1OC (stereo not drawn)	0	0.45
Cc1ccc(C(=O)C(C)OC(=O)c2cc(C)nc3ccccc23)cc1 (stereo not drawn)	-1	4.8
Cc1cc(NC(=O)CSCc2nc3c(nnn3Cc3c(F)cccc3Cl)c(=O)[nH]2)no1	-0.8	0.43
CCN(CC)S(=O)(=O)c1ccc(NC(=O)Cc2cccs2)cc1	1.4	/
COc1cc(OC)nc(N2CCN(S(=O)(=O)c3cccc(C(F)(F)F)c3)CC2)n1	/	-0.39
CC(C)CNC(=O)C1CC(=O)N(c2ccc(OCC(=O)Nc3ccc(F)cc3)cc2)C1 (stereo not drawn)	-0.65	/
O=C1NC(=[N+]2CCCCC2)S/C1=C\c1ccc(-c2ccc(Br)cc2)o1	0	/
CCOC(=O)c1c(-c2ccccc2)csc1/N=C/c1c(C)[nH]n(-c2ccccc2)c1=O	/	0.53
CCOc1ccc(C2=NN3C(C2)c2cc(Cl)ccc2OC3c2ccc(OC)c(OC)c2)cc1 (stereo not drawn)	/	-0.5
COc1ccc2[nH]cc(C(=O)NCCc3ccccc3)c(=O)c2c1	-0.5	/
Brc1ccc(CN2CCN(Cc3ccco3)CC2)cc1	-0.25	-0.09
CC1CCCCC1N=C1NN=C(c2ccccc2)CS1 (stereo not drawn)	-0.15	/
CCOC(Cn1c(COc2ccccc2)nc2ccccc21)OCC	-0.65	-0.24
CN(C)S(=O)(=O)Oc1cccc(C(=O)Nc2ccccc2Cl)c1	/	0.56
COc1cccc(/C=C2\CC(C)C/C(=C\c3ccccc3OC)C2=O)c1 (stereo not drawn)	-0.4	-1.5
C=C1C2CC[C@H]3[C@]4(C)C[C@H](OC5OC(CO)C(OS(=O)(=O)O)C(OS(=O)(=O)O)C5OC(=O)CC(C)C)C[C@@H](C(=O)O)[C@H]4CC[C@]3(C2)[C@H]1O (stereo partly drawn)	/	0.27&0.2
O=C(COc1ccc(-c2nnco2)cc1)NC1CCS(=O)(=O)C1 (stereo not drawn)	0.1	/
NC(=NC(=O)c1ccc(Cl)cc1)c1cccs1	-0.55	-0.95
O=C(O)c1cccc(-c2ccc(CO)o2)c1	-0.7	7.6
CSc1nnc(SC2=CC(=O)CC(c3ccccc3)C2)s1 (stereo not drawn)	-1.5	-1
O=c1c2ccccc2c(-c2nnc(SCc3ccc(F)cc3)o2)nn1Cc1ccccc1	0.5	/
O=S(=O)(c1ccccc1)N1CCCC1c1cccs1 (stereo not drawn)	-0.15	0.72
CCN(CC)C(=O)C1=CC(c2ccc(OC)cc2)=NS(=O)(=O)N1C	0.85	2.8
CC(C)c1ccc2nc(-c3ccc(N)cc3)[nH]c2c1	-1	64
O=C(COCc1cc2cccc3c2n(c1=O)CCC3)N1CCc2ccccc2C1	/	-0.51
CCC(=O)Oc1ccc(C(=O)Nc2nccs2)cc1	-0.95	-1.5
Cn1c(-c2ccc(C(C)(C)C)cc2)n[nH]c1=S	2	-0.14
N#CC(CC(=O)c1ccccc1)c1ccccc1 (stereo not drawn)	-0.85	-0.01
Fc1ccc(Oc2nc(SCc3ccccc3)nc3ccsc23)c(F)c1	/	0.23
CN(C)C(=O)c1ccccc1C(=O)N(C)C	-0.25	0.24
O=C1C2C(c3ccccc3)C=CC(c3ccccc3)C2C(=O)N1c1ccc(O)cc1 (stereo not drawn)	-0.3	-0.27
C=CCNc1nc(N)c(C(=C(C#N)C#N)c2ccccc2)s1	-0.05	/

Record cards, from the list above. Values in the order: AID504770, Ba CapD inh
Fc1ccc(Oc2nc(SCc3ccccc3)nc3ccsc23)c(F)c1 in the list: /, 0.23
CCN(CC)C(=O)C1=CC(c2ccc(OC)cc2)=NS(=O)(=O)N1C in the list: 0.85, 2.8
CC(C)c1ccc2nc(-c3ccc(N)cc3)[nH]c2c1 in the list: -1, 64
C=CCNc1nc(N)c(C(=C(C#N)C#N)c2ccccc2)s1 in the list: -0.05, /
C=C1C2CC[C@H]3[C@]4(C)C[C@H](OC5OC(CO)C(OS(=O)(=O)O)C(OS(=O)(=O)O)C5OC(=O)CC(C)C)C[C@@H](C(=O)O)[C@H]4CC[C@]3(C2)[C@H]1O (stereo partly drawn) in the list: /, 0.27&0.2

Additional results follow.
SMILES	AID504770	Ba CapD inh
CN(C)c1nc(Oc2ccc(/C=N/O)cc2)nc(N(C)C)n1	0.05	-0.035
O=C(NNC(=O)c1ccc(OCc2ccccc2)cc1Cl)Nc1ccccc1	/	-0.45
CC(=O)c1c(C)oc2ccc(N(C(=O)c3ccccc3Cl)S(=O)(=O)c3cccc([N+](=O)[O-])c3)cc12	/	-0.03
COc1ccc2ncc(C(=O)N3CCOCC3)c(Cl)c2c1	-0.4	68
COc1ccc(/C=N/c2nc3ccccc3n2C)cc1OC	0.2	-0.34
CC(C)C1NC(=S)N(c2ccccc2)N1 (stereo not drawn)	-0.75	-0.2
N#CC1=C(N)SC(N)=C(C#N)C1c1cccs1	0.55	/
O=C(NC1CCCCC1)C(c1ccccn1)N(Cc1ccc2c(c1)OCO2)C(=O)C(F)(F)F (stereo not drawn)	-0.85	-0.2
O=C(CN1CCN(c2ccc(O)cc2)CC1)Nc1cc(C(F)(F)F)ccc1N1CCOCC1	-1.4	/
C(=N\N1CCOCC1)/c1cccc(/C=N/N2CCOCC2)c1	-0.3	/
CCCNS(=O)(=O)c1ccc(NC(=O)c2ccncc2)cc1	-0.05	-0.38
O=C1/C(=C/c2ccc(F)cc2)COC/C1=C\c1ccc(F)cc1	-0.15	-0.27
Nc1scc[n+]1CC(=O)N1CCCc2ccccc21	-0.1	-0.015
CC(=O)OCC(=O)[C@@]12OC(C)(C)O[C@@H]1C[C@H]1C3C[C@H](F)C4=CC(=O)C=CC4(C)[C@@]3(F)[C@@H](O)C[C@@]12C (stereo partly drawn)	/	-0.28
Cc1cccc(N2C(=O)/C(=C3/C(=O)N(CC(=O)O)c4ccccc43)SC2=S)c1C	1.9	-2.7
CN(CC(=O)Nc1ccc(N2CCOCC2)cc1)c1ncnc2sccc12	0.45	/
O=C(CCc1c[nH]c2ccccc12)NCC(F)(F)F	-0.55	/
Cc1cc(=O)oc2cc(OCC(=O)N3CCCC(C)C3)ccc12 (stereo not drawn)	-0.25	55
O=C(NCc1cn2ccccc2n1)c1cc(F)c(F)c(F)c1F	-0.05	0.04
C[N+]1(CC(=O)OCCCc2ccccc2)CCOCC1	-1.1	-0.23

Reprinted from the part before: three entries, followed by the next part.
SMILES	AID504770	Ba CapD inh
Cc1cc(=O)oc2cc(OCC(=O)N3CCCC(C)C3)ccc12 (stereo not drawn)	-0.25	55
O=C(NCc1cn2ccccc2n1)c1cc(F)c(F)c(F)c1F	-0.05	0.04
C[N+]1(CC(=O)OCCCc2ccccc2)CCOCC1	-1.1	-0.23
CCCC(=O)N(c1ccc2oc(C)c(C(=O)OC)c2c1)S(=O)(=O)c1ccc(Cl)c([N+](=O)[O-])c1	/	-0.32
Cc1cc2c(cc1C)-c1c(sn(-c3cccc(C(F)(F)F)c3)c1=S)C(C)(C)N2	/	-0.86
COc1ccc(C(O)(C(=O)O)c2ccccc2)cc1 (stereo not drawn)	0.9	/
Cn1c(=O)c2c(SCC(N)=O)nc(CC(C)(C)C)nc2n(C)c1=O	0.6	0.55
O=C(OCc1ccccc1Cc1ccccc1)N1CCN(Cc2ccsc2)CC1	/	-0.45
Cn1c(=O)c2cc(C(=O)NCc3ccco3)sc2c2ccc(Cl)cc21	-0.4	8.2
Nc1cc(=O)[nH]c(=S)n1-c1ccccc1	-1.1	/
COc1ccc(-c2nnc(SCC(=O)NCCC3=CCCCC3)o2)cc1	-0.1	/
Cc1cccc(N2CCNCC2C)c1 (stereo not drawn)	1.3	/
Cc1c(Cl)cccc1NC(=S)N(C)CCC#N	-0.4	/
Clc1cccc(N2CCN(c3ncnc4[nH]ncc34)CC2)c1	-0.35	/
COc1ccc(/C(C#N)=C/c2c(Cl)cccc2Cl)cc1	0.65	0.26
CC(C)c1ccccc1OCC(=O)O	0.6	-0.11
CCc1ccc(NC(=O)c2ccnc(C(C)(C)C)c2)cc1	0.35	0.29
COc1ccc(C(C2=C(O)CCCC2=O)C2=C(O)CCCC2=O)cc1OC	/	-0.11
COC(=O)Nc1ccc(S(=O)(=O)N2CCN(CCN3C(=O)C4C5C=CC(C5)C4C3=O)CC2)cc1 (stereo not drawn)	/	-0.5
CCOC(=O)c1c(O)cc(C)[nH]c1=O	-0.85	0.01
CC1(C)S[C@@H]2[C@H](NC(=O)[C@H](N)c3ccc(O)cc3)C(=O)N2[C@H]1C(=O)O	/	-0.55
Cc1cc(/C=N/n2cnnc2)c(C)n1-c1cccc(C(F)(F)F)c1	0.35	25
NC(c1ccc2c(c1)CCCC2)c1cccs1 (stereo not drawn)	-0.95	/
c1coc(CCC2NCCn3cccc32)c1 (stereo not drawn)	-0.95	1.3
Cc1c(C(=O)O)sc2nc[nH]c(=O)c12	1.1	0.58
O=C(O)CN1CCN(Cc2ccccc2)C1=O	-0.2	0.015
CCN(CC)C(=O)/C(C#N)=C/c1cn(-c2ccccc2)nc1-c1ccccc1	-0.7	/
CC(C)c1nc2sc3c(c2c(=O)n1N)CC(C)(C)OC3	-0.5	/
Cc1ccc(C=Nc2ccc(F)c(F)c2)o1	-0.4	1.1
CC(=O)N1CCC(N(C(=O)CSCCNC(=O)c2ccco2)C2CC2)CC1	/	-0.075
Cc1ccc(S(=O)(=O)Nc2ccc(C(=O)Nc3nccs3)cc2)cc1	-0.45	/
CCCCNC(=O)CSc1nc2ccccc2nc1Cc1ccc(F)cc1	/	0.22
CC(=O)N1CCC2(CC1)CC(=O)c1cc(OCC(=O)O)ccc1O2	-0.35	0.58
COC(OC)c1ccc(C#N)c(SC)n1	-0.9	7.5
Clc1ccc(CCc2ccc(Cl)cc2)cc1	1.6	0.075
COc1ccc(OC2OC(COC(C)=O)C(OC(C)=O)C(OC(C)=O)C2OC(C)=O)cc1 (stereo not drawn)	/	-0.26
COc1ccc(OCC(=O)Nc2cc3c(cc2C(=O)O)OCCCO3)cc1	0.15	/
CC1CCN(S(=O)(=O)c2ccc(/C=C/C(=O)O)cc2)CC1	1.1	-0.42
N#CCCN(C(=O)C1CCCCC1)c1ccccc1F	-0.75	1.2
O=C(CSc1nnnn1-c1ccccc1)N/N=C/c1ccc(Cl)cc1Cl	-0.3	0.37
CC1(C)C2CCC(C2)C1(C)NC(=O)CNCc1ccco1 (stereo not drawn)	-0.55	/
FC(F)(F)c1cccnc1NCCNc1ncnc2scc(-c3ccccc3)c12	-0.7	4.6
CC(C)C(C(=O)OCC(=O)c1cccc([N+](=O)[O-])c1)N1C(=O)C2C3c4ccccc4C(c4ccccc43)C2C1=O (stereo not drawn)	/	-0.75

The final two records of the section above lead into the next.
SMILES	AID504770	Ba CapD inh
FC(F)(F)c1cccnc1NCCNc1ncnc2scc(-c3ccccc3)c12	-0.7	4.6
CC(C)C(C(=O)OCC(=O)c1cccc([N+](=O)[O-])c1)N1C(=O)C2C3c4ccccc4C(c4ccccc43)C2C1=O (stereo not drawn)	/	-0.75
COCCN1Cc2cccc(C(=O)Nc3ccc(OC)c(Cl)c3)c2C1=O	-0.55	0.14
COc1cccc(NC(=O)c2ccnc(N3CCC(C(=O)NCCc4ccccc4)CC3)c2)c1	-0.3	37
CC(=O)Oc1cc2c(cc1Cl)C(C)(C)CC(C)(c1cc(Cl)c(OC(C)=O)cc1OC(C)=O)O2 (stereo not drawn)	0.35	0.015
COc1cc(C2C(C#N)=C(N)N(N(C)C)C3=C2C(=O)CC(c2ccccc2)C3)cc(OC)c1OC (stereo not drawn)	/	-0.41
O=C(Nc1ccc(-n2cnnn2)cc1)c1cccc(S(=O)(=O)N2CCc3ccccc3C2)c1	1.4	/
CC1=C(C)CS(=O)N(S(=O)(=O)c2ccc(C)cc2)C1 (stereo not drawn)	-0.55	/
Nc1c(C(=O)NCc2ccccc2)sc2nc3c(c(-c4ccco4)c12)CCCC3	/	1
CCCC(CCC)C(=O)Nc1ccc2c(c1)N(C(=O)CCN1CCOCC1)c1ccccc1CC2	/	-0.21
CCC(C)N1CCC(N)=NC1=O (stereo not drawn)	0.2	/
CCOC(=O)CSCc1cn2cc(Cl)ccc2n1	-0.55	2.7
CN(Cc1cccc(O)c1)C1CCCCC1	0.25	0.085
CCn1c2ccccc2c2nnc(NCCOc3cccc(C(F)(F)F)c3)nc21	1.1	1.1
COc1ccc(C(=O)NC(Cc2ccccc2)C(=O)N2CCCCC2)cc1 (stereo not drawn)	1.4	-0.07
Cc1csc(NC2CCCCC2)[n+]1C	/	-0.25
O=C(CSc1nccn1-c1cccc(Cl)c1)NC1CCCC1	-0.4	-0.75
COc1ccc(-n2c(O)c(C3=c4cc(Br)ccc4=NC3=O)sc2=S)cc1	/	-0.43
COc1ccc(N2C(=N)C(C)(C)NC2=O)cc1	-0.95	-0.21
COc1ccc(N(CC(O)CN2CCCC2)S(=O)(=O)c2ccccc2)cc1 (stereo not drawn)	-0.9	/
Cc1cc(Sc2nnc(/N=C/N(C)C)s2)c2ccccc2n1	0.6	-2.8
COc1ccc(Cl)cc1C(=O)Nc1ccc(NC(=O)c2ccco2)cc1	-0.5	42
CCC(C)N=C1CC(C)(C)CC(=O)/C1=C(\O)Cc1ccccc1 (stereo not drawn)	0	0.28

Not a hit list; any-hit rate near 0.37%.
